Bioassay records as filed in PubChem.
HPGD block: HPGD (human) dehydrogenase inhibition | P15428 | purified HPGD, NADH fluorescence kinetic, PGE2 substrate | Potency, µM, for inactives: at the highest dose activity change, negative = inhibition, hits mostly inhibitors | hit rate 4.3% among 150,000; active = well fitted inhibition curve with a large enough effect (not every such curve was filed as active); inconclusive = small, poorly fitted or top-dose-only effect, or another doubt; inactive = no such curve, though single readings can be large or run the other way;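 further: top concentration of the series not given in the record; plate controls included wells without enzyme; inactives centre near -10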
Target sequence (P15428 whole entry, looked up): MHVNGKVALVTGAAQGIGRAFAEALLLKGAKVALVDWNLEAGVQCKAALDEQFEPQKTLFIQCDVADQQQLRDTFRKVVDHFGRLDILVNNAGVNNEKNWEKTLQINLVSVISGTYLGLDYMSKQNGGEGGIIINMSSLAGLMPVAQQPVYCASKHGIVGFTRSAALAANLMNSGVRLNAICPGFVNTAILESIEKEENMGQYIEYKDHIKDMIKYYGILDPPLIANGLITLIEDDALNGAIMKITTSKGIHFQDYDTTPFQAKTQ
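20 nM HPGD preincubated 15 min at room temperature with compound in 50 mM Tris-HCl pH 8, 0.01% Tween 20. Started with 1 mM NAD+ and 30 uM prostaglandin E2; NADH fluorescence (360/450 nm) read 5 times over 30-s intervals, last minus first.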
An asterisk follows results filed as active; ? = inconclusive. On the % scale 0 is the no-effect control and ±100 the full control effect; potency means the concentration at half of the fitted maximal effect. These rows are one share of the data; rates above refer to the full screens.

SMILES	HPGD block
CC(c1ccccc1F)n1cc(C(=O)NCc2ccncc2)nn1 (configuration not stated)	-9.3%
Cc1ccc([N+](=O)[O-])cc1NC(=S)NC(=O)c1cccs1	-15.5%
CCOC(=O)C1CCCN(Cc2ccc(O)c(OC)c2)C1 (configuration not stated)	-10.1%
COc1ccc(S(=O)(=O)NCc2ccco2)c2ccccc12	-8.6%
Cc1ccc(C(=O)NCCSCc2ccc(Cl)cc2Cl)cc1[N+](=O)[O-]	?
Cc1cc(NC(=O)COC(=O)c2cccc(OCc3ccccc3)c2)no1	-14.8%
O=C(Cn1cnc2c(nnn2Cc2ccc(F)cc2)c1=O)NC1CCCC1	-22.9%
CCOC(=O)c1ccc(COC(=O)CCc2nc(-c3ccccc3)c(-c3ccccc3)o2)cc1	?
O=C(Nc1cccnc1Cl)c1ccc(Cl)c([N+](=O)[O-])c1	-9.8%
OC(c1ccc(Cl)cc1Cl)C(Cc1cccnc1)n1cncn1 (configuration not stated)	-8.6%
CC(C)CN(CC(C)C)S(=O)(=O)N1CCC(C(=O)NCc2ccccn2)CC1	-1.4%
COc1cccc(NC(=O)CSc2nc(N)cc(N)n2)c1	-10.8%
Cn1c(=NC(=O)C2CCN(S(=O)(=O)c3cccs3)CC2)sc2ccccc21	-9.2%
COc1c(NC(C)=O)c2ccccc2c2ccccc12	-6.0%
CC1(C)CC(=O)C(C=NCCN2CCNC2=O)=C(O)C1	-12.1%
Cc1ccccc1NC(=O)CCC(=O)OCCCC(F)(F)C(F)(F)F	-7.7%
CCOC(=O)c1c(NC(=O)C2CCCN(S(=O)(=O)c3ccc(C)cc3)C2)sc2c1CCCC2 (configuration not stated)	-24.0%
CC(C)(C)NC(=O)/C=N/O	-2.5%
NC(=O)c1oc2ccc(Cl)cc2c1N	?
Cc1n[nH]c(C)c1C(=O)CC1(O)C(=O)N(Cc2ccccc2)c2ccc(Br)cc21 (configuration not stated)	-12.0%
O=C(NC(C(=O)c1ccccc1)n1ccc(=O)[nH]c1=O)c1ccccc1 (configuration not stated)	-16.6%
Cc1cc(C)c(NN=c2c(=O)c3ccccc3c2=O)c(C)c1	-11.1%
O=C(CSc1ncccn1)NCc1ccccc1	-10.6%
COc1cc(C(=O)Nc2cc(C)ccn2)cc(OC)c1OC	-13.0%
O=C(c1ccco1)N1CCN(S(=O)(=O)c2ccc(Cl)s2)CC1	-2.7%
Cc1nn(-c2ccccc2)c2c1C(c1cccnc1)N1C=C(S(=O)(=O)N3CCCCC3)C=CC1=N2 (configuration not stated)	-7.7%
O=c1c(-c2ccc(Cl)cc2)nc2cnc(N3CCOCC3)nc2n1C1CC1	-8.0%
CC1(C)CC(=O)C2=C(C1)Oc1ncn(CCCn3ccnc3)c(=N)c1C2c1ccccc1 (configuration not stated)	-3.4%
CCCc1nc2oc3c(NCC4CCCO4)ncnc3c2c2c1COC(C)(C)C2 (configuration not stated)	?
O=C(COc1ccccc1)Nc1ccc(S(=O)(=O)N2CCCC2)cc1	-6.6%
CC1CCC(NC(=O)C2c3ccccc3C(=O)N2CCCN2CCOCC2)CC1 (configuration not stated)	2.3%
CC(C)(C)C(=O)Nc1ccc(Oc2ccc3c(c2)C(=O)N(c2ccc(O)cc2)C3=O)cc1	-24.6%
N=c1n(CCN2CCCCC2)c2ccccc2n1CC(O)c1ccc(Cl)c(Cl)c1 (configuration not stated)	-7.4%
COc1ccc(C2SCC(C(=O)NCc3ccc(F)cc3)N2C(C)=O)cc1 (configuration not stated)	-0.8%
O=C(CSc1ccccn1)Nc1ccc(Br)cn1	-11.2%
COC(=O)[C@H](C)NC(=O)NC(C)CCc1ccccc1 (some centres not stated)	-2.2%
COc1ccc(C(=O)CC2OC(=O)c3ccccc32)cc1OC (configuration not stated)	-11.6%
Cc1cc(N)n2nc(-c3ccccc3)cc2n1	?
N#C[C@H](Cc1ccc(O)cc1)c1ccc(O)cc1	-7.9%
CCOC(=O)C(Cc1ccccc1)C(=O)Nc1cccc(C)c1 (configuration not stated)	-12.8%

Looked up one by one from above, four records:
SMILES	HPGD block
COC(=O)[C@H](C)NC(=O)NC(C)CCc1ccccc1 (some centres not stated)	-2.2%
COc1ccc(C2SCC(C(=O)NCc3ccc(F)cc3)N2C(C)=O)cc1 (configuration not stated)	-0.8%
O=C(CSc1ccccn1)Nc1ccc(Br)cn1	-11.2%
CCOC(=O)C(Cc1ccccc1)C(=O)Nc1cccc(C)c1 (configuration not stated)	-12.8%

(listing goes on)
SMILES	HPGD block
Cc1ccc(-n2nc(C)c3c2OC(N)=C(C#N)C3c2ccc(F)cc2)cc1 (configuration not stated)	-4.0%
CC1OC2C(OC1C)N(S(C)(=O)=O)CCN2S(C)(=O)=O (configuration not stated)	-0.9%
Cc1ccc(S(=O)(=O)N(CC(=O)Nc2ccccc2-c2ccccc2)c2ccc(C)cc2C)cc1	-9.2%
CC(=O)Nc1ccccc1OCC(=O)c1cc(C)n(Cc2cccs2)c1C	-13.6%
O=C(Nc1nc(-c2ccco2)cs1)c1ccccc1	-29.4%
Cc1ccc(-n2c(-c3cccs3)nc3nc4ccccc4nc32)cc1	?
CC(C)CC(=O)Nc1nc2c(c(=O)[nH]1)CCCC2	-19.1%
CC1CCN(CCCNC(=O)C2CCC(=O)N2C2CCCC2)CC1 (configuration not stated)	-9.8%

Additional compounds:
Molecule | HPGD block
Cc1c(NC(=O)CSc2nnc3c4ccccc4n(CCc4ccccc4)c3n2)c(=O)n(-c2ccccc2)n1C | -3.7%
O=C(O)c1[nH]c2ccc(Cl)cc2c1CC(=O)N1CCN(C(=O)c2ccco2)CC1 | -15.2%
Cc1cc(C(F)(F)F)n2ncc(-c3ccc(F)cc3)c2n1 | 3.6%
CCOC(=O)N1CCC(c2cc(=O)n3[nH]cc(C(=O)OC)c3n2)CC1 | -7.3%
CCOC(=O)N1CCN(C(=O)C2CCN(S(=O)(=O)N(CC)CC)CC2)CC1 | -4.4%
COc1ccccc1C(=O)NNC1CC(=O)N(c2ccc3c(c2)OCCO3)C1=O (configuration not stated) | -9.2%
O=C(CSc1nnc(-c2ccc(O)cc2)o1)N1CCOCC1 | -13.9%
COC(=O)c1nnn(CC(=O)Nc2cccc(OC)c2)c1C(=O)OC | -5.4%
COc1ccccc1S(=O)(=O)Cc1ccc(C(=O)NCc2ccc3c(c2)OCO3)o1 | -6.0%
COc1ccccc1OCc1nnc(SCC(=O)Nc2ccc(C)cc2)n1C | -6.6%
Cc1ccc2nc3c(cc(C#N)c(=O)n3CC3CCCO3)c(=O)n2c1 (configuration not stated) | ?
CC(C)C(=O)Nc1ccc2c3c(cccc13)CC2 | -17.7%
CCOC(=O)CSC1=NC(=O)/C(=C/c2ccc(OC)cc2)S1 | 12.6µM*
c1ccc(-c2nc3ccccn3c2NCc2ccc3c(c2)OCO3)cc1 | ?
CC(=O)[C@@H]1[C@@H](C(=O)c2ccccc2)[C@]2(C(=O)Nc3ccccc32)[C@H]2C=Cc3cc(F)ccc3N12 | -19.4%
CCNS(=O)(=O)c1ccc(NC(=O)c2ccccc2)cc1 | -8.8%
COc1ccc(NC(=O)c2cc3cc(OC)ccc3oc2=N)cc1 | -17.2%
CC[n+]1c(/C=C2/C=C(C)CC(C)(C)C2)sc2ccc(OC)cc21 | -25.5%
COc1cc(C(=O)NC(=S)Nc2ccc(Cl)c(C(=O)O)c2)cc(OC)c1OC | -10.4%
CCCSc1nsc(NC(=O)C(c2ccccc2)c2ccccc2)n1 | -27.1%
Cc1cccc(OCC(=O)NC2CCCc3ccccc32)c1C (configuration not stated) | -23.7%
CC1(C)CC(=O)C2=C(C1)Nc1nc(SCCN3CCOCC3)[nH]c(=O)c1C2c1cccs1 (configuration not stated) | -17.1%
O=C(Nc1ccc(OC(F)F)c(Cl)c1)Nc1ccc2c(c1)OCO2 | -6.8%
O=C(NCCc1c[nH]c2ccccc12)C(=O)NCC(c1ccco1)N1CCN(c2ccccc2)CC1 (configuration not stated) | -0.3%
Cc1cc(NS(=O)(=O)c2ccc(NC(=S)NC(=O)c3ccccc3)cc2)no1 | -10.9%
COc1ccc(S(=O)(=O)n2cnc3cc(C)c(C)cc32)cc1C | -6.5%
CC(C)c1ccc(C2CC(=O)N3CN(C)CSC3=C2C#N)cc1 (configuration not stated) | 14.1µM*
CCCCOC(=O)Nc1nc2ccccc2s1 | -3.4%
Cc1nn(CC(=O)NCCN2CCOCC2)c(C)c1[N+](=O)[O-] | -14.2%
CCc1sc(N(C(=O)Cc2ccccc2)c2ccc(F)cc2)nc1-c1ccccc1 | -9.7%
COc1ccc(-c2oc(NC(=O)CSc3ncn[nH]3)c(C#N)c2-c2ccc(OC)cc2)cc1 | -12.9%
Cc1ccc(CC(=O)Nc2ccccc2N2CCOCC2)cc1C | -6.5%
CCc1c(C)nc2cc(-c3cc(OC)cc(OC)c3)nn2c1N1CCN(CCN2CCOCC2)CC1 | -23.6%
COc1ccc(Cc2c(Cl)ncnc2Cl)cc1 | -24.5%
O=C(Nc1cccc(S(=O)(=O)C(F)F)c1)c1ccc(Cl)c(S(=O)(=O)N2CCOCC2)c1 | 0.7%
CCOC(=O)c1nnc(-c2ccccc2)nc1NCc1ccccc1 | -9.3%
CCn1c2ccccc2c2cc(NC(=O)CSc3nnc(-c4ccccc4OC)n3N)ccc21 | -13.1%
CCc1ccc(-c2nc(CN3CCC(C(=O)NCc4ccco4)CC3)c(C)o2)cc1 | -0.5%
COc1ccc(NC(=S)Nc2ccccc2)cn1 | -7.0%
c1ccc(Cc2nn3c(Cn4nnc5ccccc54)nnc3s2)cc1 | 20µM*
Cc1ccnc(N2CCC(C(=O)Nc3cccc(C(F)(F)F)c3)CC2)n1 | -24.6%
O=C(OCC(=O)N1CCN(C(=O)c2ccco2)CC1)c1cc(-c2ccccc2)nc2ccccc12 | ?
CC/C(=N\NS(C)(=O)=O)c1ccccc1 | -10.6%
Cc1cc2nc3[nH]c4c(Cl)cc(Cl)cc4c3nc2cc1C | -6.5%
Cc1nn(C)c(C)c1S(=O)(=O)N(CC(=O)NC1CCCCCC1)c1ccc(C(C)C)cc1 | -4.0%
Cc1ccc(NC(=O)c2cc(S(=O)(=O)NCCC3=CCCCC3)ccc2F)cc1 | -21.2%
Cc1nc(NS(=O)(=O)c2ccccc2)sc1NC(=O)OC(C)C | -18.3%
COc1cccc(/C=N/NC(=O)CCc2c(C)n[nH]c2C)c1 | -15.6%
CCn1c(C(=O)N2CCC(C(=O)N3CCN(c4ccccn4)CC3)CC2)cc2sccc21 | ?
COc1ccccc1C(OC(=O)c1cccs1)C(=O)NCc1ccco1 (configuration not stated) | -25.2%
CCOC(=O)c1c(-c2ccccc2)nc2ccccn12 | -4.9%
O=C(NO)c1ccccc1 | -9.4%
CCN1CCCC1CNC(=O)c1cc2c(-c3cccc(OC)c3)nn(C)c2s1 (configuration not stated) | ?
CC1(C)Cc2ccccc2-c2nnnn21 | -8.4%
Cc1oc2ccccc2c1-c1cn2c(n1)SCC2 | -19.5%
O=C(Cn1nnc(-c2ccccc2Cl)n1)N/N=C/c1ccc2c(c1)OCO2 | ?
Fc1ccccc1NC(=S)NN(Cc1ccccc1)c1ccccc1 | -17.4%
COc1ccccc1NC(=O)CCN1CC(C)OC(C)C1 (configuration not stated) | -9.8%
O=C(CCC1CCCCC1)Nc1ncn[nH]1 | 0.1%
CCCCC(=O)OCCNC(=O)c1cc2ccccc2oc1=O | -17.1%

Arranged by count of non-hydrogen atoms (highest first): 4 of the compounds above.
Molecule | HPGD block
CCCCC(=O)OCCNC(=O)c1cc2ccccc2oc1=O | -17.1%
COc1cccc(/C=N/NC(=O)CCc2c(C)n[nH]c2C)c1 | -15.6%
COc1ccccc1NC(=O)CCN1CC(C)OC(C)C1 (configuration not stated) | -9.8%
Cc1oc2ccccc2c1-c1cn2c(n1)SCC2 | -19.5%

Continuation:
Molecule | HPGD block
CCOc1cc(NC(=S)NCCCOC)c(OCC)cc1NC(=O)c1cccs1 | -10.6%
COC(=O)c1cc2ccsc2n1CC(=O)N(C)c1ccccc1 | -8.3%
CCOC(=O)CN1CC23C=CC(O2)C(C(=O)NC2CCCCC2)C3C1=O (configuration not stated) | -2.0%
CC(C)Cn1c(SCC(=O)N2CCN(S(=O)(=O)c3ccccc3)CC2)nc2ccccc21 | -9.8%
CCOc1ccc2nc(NC(=O)C(CC)Sc3nc(C)cc(=O)[nH]3)sc2c1 (configuration not stated) | -21.5%
Cc1ccc(C)c(N2CCN(c3nc4ccccc4c(=O)n3Cc3ccccc3)CC2)c1 | -17.8%
CC1CCCCC1NC(=O)c1cc2ccccc2o1 (configuration not stated) | -7.2%
CCOC(=O)c1c(N)c(C#N)c2n1CCCCC2 | 6.0%
COc1ccc(C(=O)/C(=C/c2cccs2)c2nc3ccccc3o2)cc1 | 35.5µM*
CNC(=O)CC12CC3CC(CC(C3)C1)C2 | 0.5%
O=C(CCN1CCC(c2ccccc2)C1)c1ccccc1 (configuration not stated) | -22.4%
O=[N+]([O-])c1cccc(Cl)c1NCCNc1ncc(C(F)(F)F)cc1Cl | -22.2%
O=S1(=O)CCC(NC(=S)N2CCCCCC2)C1 (configuration not stated) | -1.7%
Cc1cccc(C2Nc3ccccc3C(=O)N2c2ccc(F)cc2)n1 (configuration not stated) | ?
CCOC(=O)c1c(-c2ccncc2)csc1N | ?
OC12CCCCC1C(c1ccc3c(c1)OCO3)N(Cc1ccc(F)cc1)CC2 (configuration not stated) | -9.7%
CCc1ccc(OCCOCC(O)CN(CCO)CCO)cc1 (configuration not stated) | 4.5%
CN1CC2(C)CN(C(c3ccccc3)c3ccccc3)CC(C)(C1)C2O (configuration not stated) | -5.8%
